High-throughput results deposited in PubChem by several laboratories.
UCH37 inh: blocks the human deubiquitinase UCH37. Q9Y5K5. purified proteasome/UCH37, Ub-AMC cleavage fluorescence. inhibition, % (no concentration beside the values). 330,000 compounds, 0.33% hits;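 active = mean of two replicates above 20%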;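 note: 0% = compound-free wells with enzyme and 100% = wells lacking proteasome; stock transfer was 100 nL into about 20 µL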
Target sequence (Q9Y5K5 whole entry, looked up): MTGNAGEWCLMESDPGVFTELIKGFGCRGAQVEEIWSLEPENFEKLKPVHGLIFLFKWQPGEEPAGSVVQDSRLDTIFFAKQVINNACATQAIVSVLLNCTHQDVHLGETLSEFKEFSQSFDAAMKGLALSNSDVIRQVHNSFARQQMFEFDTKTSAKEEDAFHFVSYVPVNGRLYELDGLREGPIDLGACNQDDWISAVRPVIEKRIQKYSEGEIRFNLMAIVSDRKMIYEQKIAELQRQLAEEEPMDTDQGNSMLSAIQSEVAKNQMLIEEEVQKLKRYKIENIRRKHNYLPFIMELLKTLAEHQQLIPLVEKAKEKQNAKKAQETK
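assay system = human UCH37 enzyme supplied as purified proteasome complex | amount = proteasome at 0.15 nM in the dispensed enzyme solution | schedule = 30 min compound-proteasome preincubation then 25 min substrate reaction, room temperature | measured by = fluorescence, ex 355 nm, em 460 nm | benchmarks = no-proteasome wells (full inhibition) and compound-free wells (no inhibition)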
Ecoli growth: inhibitors of Escherichia coli growth; OD600, 23 h; hits give low values; OD600 absorbance (concentration not given with the values); 330,000 compounds, 0.21% hits;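 active = OD600 absorbance below the run mean of sample wells minus 3.6 SD, in any replicate, cut at about 0.56 in these data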;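 note: stock transfer was 300 nL into about 60 µL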
Beta2AR agonist: agonists of human beta-2 adrenergic receptor inducing internalization; Am2.2-beta2AR cells, FAP receptor internalization, flow cytometry; reference of the scale not given here; response, % (no concentration beside the values); 340,000 compounds, 0.43% hits;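 active = response above a set limit, near 3 SD of response in nonfluorescent compounds, cut at about 42% in these data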;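 note: stock transfer was 100 nL into about 11 µL; a reference agonist was the positive control; negative values mostly stem from fluorescent compounds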
Target sequence (P07550 whole entry, looked up): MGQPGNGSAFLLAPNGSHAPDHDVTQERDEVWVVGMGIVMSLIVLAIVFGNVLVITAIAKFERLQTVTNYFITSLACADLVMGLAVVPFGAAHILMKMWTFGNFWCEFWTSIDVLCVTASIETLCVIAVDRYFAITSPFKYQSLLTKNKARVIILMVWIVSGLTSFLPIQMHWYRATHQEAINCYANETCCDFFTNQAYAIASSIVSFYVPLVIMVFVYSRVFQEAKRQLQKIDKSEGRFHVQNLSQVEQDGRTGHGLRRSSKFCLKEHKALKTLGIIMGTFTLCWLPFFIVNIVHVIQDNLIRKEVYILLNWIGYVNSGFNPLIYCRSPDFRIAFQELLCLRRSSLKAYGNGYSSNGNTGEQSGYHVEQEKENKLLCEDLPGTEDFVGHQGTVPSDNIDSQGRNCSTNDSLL
Vif A3G: inhibitors of Vif binding to APOBEC3G peptide, primary screen, biochemical, TR-FRET, GST-Vif 1-94, biotin-A3G peptide, dose response retest (AID 1117319). TR-FRET GST-Vif / biotin-A3G peptide binding; higher % means a stronger effect; test concentration not given here; strong numbers were not always called active. inhibition, %, or IC50 in µM where a hit was titrated. 260,000 compounds, 0.57% hits;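 active = above the screen mean plus three standard deviations and confirmed in dose response; inconclusive = results disagree or hit not tested in dose response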;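 note: Vif residues 1-94 fused to GST binding biotinylated APOBEC3G peptide 110-148; 0% = full assay without inhibitor and 100% = GST in place of GST-Vif; retest series ran down from 100 µM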
LANA-H2A inh: blocks KSHV LANA binding to histone H2A/H2B; Q9QR71; cell-free LANA-H2A/H2B peptide, fluorescence polarization; inhibition, % (test concentration not listed); 320,000 compounds, 0.6% hits; in the data active = inhibition mostly above about 10%, no sharp cut-off; inactive = mostly below about 6.7%;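 note: stock transfer was 7.5 nL into about 10 µL; 0% = median of vehicle wells and 100% = median of positive control wells; one replicate is shown; the record names a cut of 25% in any replicate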
A1 inh: inhibitors of the anti-apoptotic protein A1, read as caspase activation; MEF A1-2A-BIM cells, Caspase-Glo 3/7 luminescence, 3 h; percent of clofoctol response, vehicle zero; caspase activation, % (concentration not given with the values); 330,000 compounds, 0.066% hits; AID 2462;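 active = over half of replicate activation scores above 10%, or exactly half above 10 with the replicate mean above 10; inconclusive = replicate mean below 10 yet half the replicates above 10; inactive = over half of replicates below 10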;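 note: wells of about 30 µL received 50 nL stock; many hits fall short of the cut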
HNF4A DNA FP: change in binding of human HNF4 alpha to DNA; P41235; HNF4a-FITC DNA binding, fluorescence polarization, 1 h; activity change, % at 10 µM; 360,000 compounds, 0.3% hits; in the data active = activity change above about 30%, passing the limit was not always enough;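 note: controls were the assay level and a saturating level of protein; the project sought stronger binding though the title names inhibitors; some compounds called inactive have numbers as strong as hits; positive values seem to mean higher polarization but the record does not say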
* marks the source's active call; other numbers are inactive results.

How did O=C(CSc1nnnn1-c1ccc2c(c1)OCCO2)Nc1nc2c(s1)CCCC2 do in these assays?
UCH37 inh: 2.7; Ecoli growth: 0.69; Beta2AR agonist: -6; Vif A3G: 3%; LANA-H2A inh: -10; A1 inh: -0.6; HNF4A DNA FP: 0.3

How did Cc1cc(OCc2cc(C(=O)N3CCC(Oc4cccnc4)CC3)no2)cc(C)c1Cl do in these assays?
Beta2AR agonist: -11; Vif A3G: 5%; LANA-H2A inh: -7.4; A1 inh: -0.6; HNF4A DNA FP: 1.6

How did Cc1ccc(C(=O)NC2CC(=O)N(c3ccc4c(c3)OCCO4)C2)cc1[N+](=O)[O-] (stereo unspecified) do in these assays?
UCH37 inh: 3.3; Ecoli growth: 0.68; Beta2AR agonist: 2; LANA-H2A inh: -1.7; A1 inh: 0.1; HNF4A DNA FP: -1.2

How did CC(=O)Nc1ccc(C(=O)CN2C(=O)NC3(CCOc4ccccc43)C2=O)c(F)c1 (stereo unspecified) do in these assays?
UCH37 inh: 1.7; Ecoli growth: 0.64; Beta2AR agonist: 12; Vif A3G: 0%; LANA-H2A inh: -2.9; A1 inh: -0.8; HNF4A DNA FP: 7.5

Results for O=C(O)C1CC=CCC1C(=O)NCCc1csc(-c2ccccc2)n1 (stereo unspecified) ?
UCH37 inh: 1.0; Ecoli growth: 0.66; Beta2AR agonist: 5; Vif A3G: -8%; LANA-H2A inh: -3.3; A1 inh: -0.3; HNF4A DNA FP: -6.0

How did CC(OC(=O)Cc1ccc(Cl)cc1)C(=O)NCCC1=CCCCC1 (stereo unspecified) do in these assays?
UCH37 inh: 2.7; Ecoli growth: 0.74; Beta2AR agonist: -2; LANA-H2A inh: 1.4; A1 inh: -0.4; HNF4A DNA FP: -4.7

What do the screens show for `CC(=O)Oc1cccc(/C=c2\sc3nc(-c4ccco4)nn3c2=O)c1`?
Beta2AR agonist: 7; Vif A3G: 8%; LANA-H2A inh: -3.1; A1 inh: 0.8; HNF4A DNA FP: -7.6

What do the screens show for `N/C(=N\OC(=O)Cc1ccccc1)c1ccc(Br)cc1`?
UCH37 inh: 1.4; Ecoli growth: 0.68; Beta2AR agonist: -2; Vif A3G: -2%; LANA-H2A inh: -1.3; A1 inh: -1.0; HNF4A DNA FP: 5.3

Results for CCOC(=O)C1CCN(C(=O)c2cccnc2Cl)CC1 ?
UCH37 inh: 4.9; Ecoli growth: 0.67; Beta2AR agonist: 0; Vif A3G: 10%; LANA-H2A inh: 6.2; A1 inh: 1.7; HNF4A DNA FP: -0.7

How did Cc1ccc(/C=C/c2nnc(-c3ccccc3)o2)cc1 do in these assays?
UCH37 inh: -6.1; Ecoli growth: 0.73; Beta2AR agonist: 2; Vif A3G: 1%; LANA-H2A inh: -1.7; A1 inh: -5.2; HNF4A DNA FP: -0.6

What do the screens show for `CC(C)c1ccc(NC(=O)CCN2C(=O)[C@@H]3Cc4ccccc4CN3C2=O)cc1`?
UCH37 inh: -2.8; Ecoli growth: 0.61; Beta2AR agonist: -11; LANA-H2A inh: 3.0; A1 inh: -0.4; HNF4A DNA FP: -2.5

Results for C=CCN1C(=O)C(Cc2ccc(OCC)cc2)SC1=Nc1ccc(C(=O)O)cc1 (stereo unspecified) ?
UCH37 inh: -1.9; Ecoli growth: 0.68; Beta2AR agonist: 3; LANA-H2A inh: 0.6; A1 inh: 0.4; HNF4A DNA FP: 3.4

Results for Fc1ccc(CCN2CCN=C2Nc2ccccc2)cc1 ?
UCH37 inh: 2.5; Ecoli growth: 0.68; Beta2AR agonist: 5; LANA-H2A inh: -0.3; A1 inh: 1.7; HNF4A DNA FP: 2.4

How did COc1ccc(OC)c(NS(=O)(=O)c2c(C(=O)N3CCCCCC3)c(C)n(C)c2C)c1 do in these assays?
Beta2AR agonist: 2; LANA-H2A inh: 0.8; A1 inh: 0.6; HNF4A DNA FP: 0.2

What do the screens show for `Cc1ccc(CN2CCNC(=O)C2CC(=O)NC2CCCCCC2)cc1` (stereo unspecified)?
UCH37 inh: 1.3; Ecoli growth: 0.71; Beta2AR agonist: 13; LANA-H2A inh: -4.9; A1 inh: 0.0; HNF4A DNA FP: -4.8

What do the screens show for `C/C(=N\NC(=S)NC1CCCCC1)c1ccc(OC(F)F)cc1OC(F)F`?
Beta2AR agonist: -8; LANA-H2A inh: 2.8; A1 inh: 0.0; HNF4A DNA FP: -1.0

How did CC1CCN(C(=O)c2[nH]cnc2C(=O)NCc2ccc(CNC(=O)OC(C)(C)C)cc2)CC1 do in these assays?
UCH37 inh: 28*; Ecoli growth: 0.66; Beta2AR agonist: 0; LANA-H2A inh: -4.2; A1 inh: 1.1; HNF4A DNA FP: 3.6

What do the screens show for `CC1=C[C@H]2OC(=O)[C@@H](C)[C@H]2C[C@@H]2[C@H]1C[C@@H](O)[C@@]2(C)O`?
UCH37 inh: 2.2; Beta2AR agonist: 3; LANA-H2A inh: -2.3; A1 inh: -1.9; HNF4A DNA FP: -0.4

Results for Cc1ccc(C(=O)N(CCC2=CCCCC2)c2c(N)n(Cc3ccccc3)c(=O)[nH]c2=O)o1 ?
UCH37 inh: 11; Ecoli growth: 0.72; Beta2AR agonist: 13; Vif A3G: 7%; LANA-H2A inh: -4.2; A1 inh: 1.7; HNF4A DNA FP: 1.2

How did CC/C(CC(C)(C)c1ccccc1)=N\O do in these assays?
Beta2AR agonist: -4; Vif A3G: -6%; LANA-H2A inh: 3.9; A1 inh: 0.3; HNF4A DNA FP: 1.3

Results for Cc1ccc(COc2coc(CO)cc2=O)cc1 ?
UCH37 inh: 1.1; Ecoli growth: 0.66; Beta2AR agonist: 2; Vif A3G: inconclusive; LANA-H2A inh: 2.2; A1 inh: -0.5; HNF4A DNA FP: -3.4

Results for CCOC(=O)C1CCN(C(=O)CN2C(=O)NC3(CCCCC3)C2=O)CC1 ?
UCH37 inh: 0.4; Ecoli growth: 0.69; Beta2AR agonist: -3; LANA-H2A inh: 2.5; A1 inh: -0.4; HNF4A DNA FP: -1.3

Results for COc1ccc(C2Nc3ccccc3C(=O)N2Cc2ccco2)cc1COc1ccccc1F (stereo unspecified) ?
UCH37 inh: -62; Ecoli growth: 0.8; Beta2AR agonist: -10; Vif A3G: 4%; LANA-H2A inh: -4.7; A1 inh: 0.2; HNF4A DNA FP: -1.7

What do the screens show for `COc1ccc(-c2nnc(SCc3cccc(C)c3)n2N)cc1`?
UCH37 inh: 5.0; Ecoli growth: 0.7; Beta2AR agonist: 3; Vif A3G: 4%; LANA-H2A inh: 3.9; A1 inh: 0.2; HNF4A DNA FP: -2.1

What do the screens show for `CCn1c(=O)n(CC)c2cc(S(N)(=O)=O)ccc21`?
UCH37 inh: 2.7; Ecoli growth: 0.73; Beta2AR agonist: -7; Vif A3G: 0%; LANA-H2A inh: 2.6; A1 inh: 1.0; HNF4A DNA FP: 0.3

What do the screens show for `COc1cc(OC)c(NC(=O)c2ccc3c(SCC(=O)O)c4c(nc3c2)CCCC4)cc1Cl`?
Beta2AR agonist: -7; Vif A3G: inconclusive; LANA-H2A inh: 0.2; A1 inh: -0.3; HNF4A DNA FP: 1.4

Results for Nc1cc(=O)[nH]c(SCC(=O)Nc2ccc(Cl)c(Cl)c2)n1 ?
UCH37 inh: 6.8; Ecoli growth: 0.69; Beta2AR agonist: 6; Vif A3G: -4%; LANA-H2A inh: 2.1; A1 inh: -0.2; HNF4A DNA FP: 2.6

How did Cc1ccccc1C(=O)NC1CCN(C(=O)Nc2ccc(F)cc2)CC1 do in these assays?
UCH37 inh: 1.4; Ecoli growth: 0.65; Beta2AR agonist: 3; LANA-H2A inh: 4.3; A1 inh: 0.0; HNF4A DNA FP: -1.8

Results for CS(=O)(=O)NCCOc1ccc(S(=O)(=O)NCCOc2ccccc2)cc1 ?
UCH37 inh: 1.8; Ecoli growth: 0.69; Beta2AR agonist: -7; Vif A3G: -6%; LANA-H2A inh: -2.6; A1 inh: 0.4; HNF4A DNA FP: 3.2

How did CCC[C@@H](CN1CCC[C@H]1CN1C(N)=NC[C@@H]1Cc1ccccc1)N1C[C@@H](Cc2ccccc2)N(CCCC2CCCC2)C1=N do in these assays?
UCH37 inh: 4.7; Beta2AR agonist: -5; LANA-H2A inh: -2.7; A1 inh: 1.1; HNF4A DNA FP: 5.2

Results for Cc1ccc(C(=O)N/C(=C\c2cn(C)c3ccccc23)C(=O)NCCN2CCOCC2)cc1 ?
UCH37 inh: 13; Ecoli growth: 0.61; Beta2AR agonist: 2; Vif A3G: 8%; LANA-H2A inh: 0.6; A1 inh: 2.0; HNF4A DNA FP: 0.2

How did O=C(NCCCc1ccccc1)C1CCN(S(=O)(=O)c2ccc(F)cc2)CC1 do in these assays?
UCH37 inh: 0.3; Ecoli growth: 0.65; Beta2AR agonist: 1; Vif A3G: 3%; LANA-H2A inh: -4.9; A1 inh: -0.4; HNF4A DNA FP: 1.6

Results for CC(=O)Nc1ccc(S(=O)(=O)NCc2ccccn2)cc1 ?
UCH37 inh: 2.9; Ecoli growth: 0.7; Beta2AR agonist: 2; Vif A3G: inconclusive; A1 inh: 0.7; HNF4A DNA FP: -0.4

Results for Cc1ccc(CNC(=O)[C@@H](NC(=O)C2CCN(C(=O)[C@@H]3CCCN3)CC2)C(C)C)cc1 ?
UCH37 inh: 1.7; Ecoli growth: 0.69; Beta2AR agonist: 6; LANA-H2A inh: -2.5; A1 inh: -0.7; HNF4A DNA FP: 3.0

Results for COc1ccc(N2CCN(C(=O)COC(=O)c3cc(S(=O)(=O)N(C)C)ccc3N3CCCC3)CC2)cc1 ?
UCH37 inh: 5.7; Ecoli growth: 0.65; Beta2AR agonist: 6; Vif A3G: 0%; LANA-H2A inh: -6.1; A1 inh: 0.6; HNF4A DNA FP: 2.3

How did O=C(C1=C[C@H](c2ccc(Br)cc2)C[C@H](OCCCCO)O1)N1CCN(Cc2ccc3c(c2)OCO3)CC1 do in these assays?
UCH37 inh: 3.7; Beta2AR agonist: 4; LANA-H2A inh: -1.9; A1 inh: -1.4; HNF4A DNA FP: -3.3

What do the screens show for `CC1CCN(C(=O)CSc2nnc(CNC(=O)c3c(F)cccc3F)o2)CC1`?
UCH37 inh: 1.0; Ecoli growth: 0.7; Beta2AR agonist: -1; LANA-H2A inh: 2.3; A1 inh: 0.6; HNF4A DNA FP: -2.0

What do the screens show for `CCS(=O)(=O)NCC(c1ccco1)N1CCN(c2ccccc2F)CC1` (stereo unspecified)?
UCH37 inh: 3.2; Ecoli growth: 0.69; Beta2AR agonist: 2; Vif A3G: -1%; LANA-H2A inh: -0.4; A1 inh: 0.2; HNF4A DNA FP: 2.3

Fetched one by one from the list above (4):
How did Cc1ccc(C(=O)NC2CC(=O)N(c3ccc4c(c3)OCCO4)C2)cc1[N+](=O)[O-] (stereo unspecified) do in these assays?
UCH37 inh: 3.3; Ecoli growth: 0.68; Beta2AR agonist: 2; LANA-H2A inh: -1.7; A1 inh: 0.1; HNF4A DNA FP: -1.2

What do the screens show for `CCS(=O)(=O)NCC(c1ccco1)N1CCN(c2ccccc2F)CC1` (stereo unspecified)?
UCH37 inh: 3.2; Ecoli growth: 0.69; Beta2AR agonist: 2; Vif A3G: -1%; LANA-H2A inh: -0.4; A1 inh: 0.2; HNF4A DNA FP: 2.3

How did O=C(C1=C[C@H](c2ccc(Br)cc2)C[C@H](OCCCCO)O1)N1CCN(Cc2ccc3c(c2)OCO3)CC1 do in these assays?
UCH37 inh: 3.7; Beta2AR agonist: 4; LANA-H2A inh: -1.9; A1 inh: -1.4; HNF4A DNA FP: -3.3

How did Cc1ccccc1C(=O)NC1CCN(C(=O)Nc2ccc(F)cc2)CC1 do in these assays?
UCH37 inh: 1.4; Ecoli growth: 0.65; Beta2AR agonist: 3; LANA-H2A inh: 4.3; A1 inh: 0.0; HNF4A DNA FP: -1.8
